KSHV LANA nucl: LANA-nucleosome interaction inhibition; FITC-LANA1-23 / chicken nucleosome fluorescence polarization; stronger effect = lower value; z-score (concentration not given with the values); 0.3% of 51,000 active; AID 720717;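 active means both repeat wells score below -2 in polarization z-score versus plate sample wells, excluding overly bright wells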;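 further: 100 nL library stock added to about 30 µL; numbers are from one replicate; some results filed as inactive read as strong as hits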
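Test system: purified chicken nucleosomes with FITC-labelled LANA N-terminal peptide (1-23); Input: 240 nM purified chicken nucleosomes (480 nM peptide binding sites), final; Medium: TEN-BT buffer, pH 7.5; Timing: 10–45 min, room temperature; Technique: fluorescence polarization, 480 nm excitation, 535 nm parallel and perpendicular emission; Replication: duplicates.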
BasE inh: BasE siderophore biosynthesis inhibition; purified BasE, fluorescence polarization binding displacement; AID 485350; inhibition, % (concentration not given with the values); 0.1% of 84,000 active;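 active means both replicates above 25% with normal brightness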;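 further: 0% = negative plate control signal and 100% = positive plate control signal; stock transfer was 100 nL into about 30 µL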
Numbers without * were called inactive; . = no result given.

Results follow in this order: KSHV LANA nucl, BasE inh
CCC(Sc1nnc(CSc2ncccn2)n1-c1ccc(Cl)cc1)C(=O)OC (stereo not given)
→ 0.31, -2.6
CCOC(=O)Cc1nnc(-c2ccc(Cl)cc2)o1
→ 0.47, -0.8
O=C(NCc1ccco1)/C(=C/c1cn(-c2ccccc2)nc1-c1cccs1)NC(=O)c1ccccc1
→ 0.18, 33
Cc1cccc(COc2coc(CN3CCc4ccccc4C3)cc2=O)c1
→ 1.4, -0.6
Cn1c(Cc2ccccc2)nnc1SCN1C(=O)c2ccccc2C1=O
→ ., 1.4
Cc1cc(C)nc(NC(N)=NC2CCCCC2)n1
→ 0.17, -0.1
Cc1nc(Cc2nnc(SCC(=O)c3ccc4c(c3)NC(=O)CO4)o2)cs1
→ ., 0.2
CCCN(CCC)C(=O)c1cc(-c2ccccc2)n[nH]1
→ -0.75, -1.1
O=C(CN1CCOCC1)C12CC3CC(CC(C3)C1)C2
→ 1.1, -2.5
CCOC(=O)N1CCC(N(CCN(C)C)C(=S)Nc2ccc(OC)c(Cl)c2)CC1
→ -0.045, -2.6

Structures from the list above with nitrogen in an aromatic ring:
Results follow in this order: KSHV LANA nucl, BasE inh
CCC(Sc1nnc(CSc2ncccn2)n1-c1ccc(Cl)cc1)C(=O)OC (stereo not given)
→ 0.31, -2.6
CCOC(=O)Cc1nnc(-c2ccc(Cl)cc2)o1
→ 0.47, -0.8
O=C(NCc1ccco1)/C(=C/c1cn(-c2ccccc2)nc1-c1cccs1)NC(=O)c1ccccc1
→ 0.18, 33
Cn1c(Cc2ccccc2)nnc1SCN1C(=O)c2ccccc2C1=O
→ ., 1.4
Cc1cc(C)nc(NC(N)=NC2CCCCC2)n1
→ 0.17, -0.1
Cc1nc(Cc2nnc(SCC(=O)c3ccc4c(c3)NC(=O)CO4)o2)cs1
→ ., 0.2
CCCN(CCC)C(=O)c1cc(-c2ccccc2)n[nH]1
→ -0.75, -1.1

The results go on.
Results follow in this order: KSHV LANA nucl, BasE inh
Cc1sc2ncnc(NCC(C)(C)N3CCOCC3)c2c1C
→ ., 0.5
CCn1c(Cn2ncc(Cl)c(Cl)c2=O)nc2cc(S(=O)(=O)N(C)C)ccc21
→ ., 1.5
CC1(C)C[C@@H]1C(=O)N/C(=C\CCCCSC[C@H](N)C(=O)O)C(=O)O
→ -0.22, .
CC1(C)C2CC=C(COCC(O)CNC3CC3)C1C2 (stereo not given)
→ ., 0.5
CC1CCCC(C)N1C(=O)COc1ccc(-c2nnco2)cc1 (stereo not given)
→ ., -0.4
O=c1[nH]c(=O)n([C@H]2C[C@@H](O)[C@@H](CO)O2)cc1C(F)(F)F
→ 0.18, -0.8
CCOC(=O)N1CCN(C(=O)CSc2nnc(Cc3cccn3C)n2-c2ccc(C)cc2)CC1
→ 0.2, 1.6
CCOc1ccc(C(=O)c2cccs2)cc1
→ -1.4, 1.5
Cn1c(C(C#N)c2nc(C#N)c(C#N)nc2Cl)nc2ccccc21 (stereo not given)
→ ., 3.6
COc1cc2c(cc1OC)C(C)N(C(=O)c1nn(-c3ccccc3)nc1C)CC2 (stereo not given)
→ ., 0.9
COc1ccc(CNC(=O)Cc2nc(-c3ccc(OC)cc3)no2)cc1
→ -0.28, 2.9
CCN(Cc1nc(-c2cccc(Br)c2)no1)C(C)C(=O)Nc1ccc(C)cc1 (stereo not given)
→ ., 1.3
COC(=O)c1cc(C#N)c(C)nc1Sc1nccn1-c1cc(Cl)ccc1Cl
→ ., -0.1
O=C(CSc1ccccc1C(=O)O)c1ccc(Cl)cc1
→ ., -0.5
O=C(c1cccs1)c1cnc2ccccn2c1=O
→ 2.6, -2.4
Cc1ccc2nc(C3=C(O)CN(CC(C)C)C3=N)[nH]c2c1
→ -0.63, -0.1
CCCCN(C)Cc1c(O)ccc2c(=O)c(Oc3cc(C)cc(C)c3)coc12
→ 0.46, 0.7
O=C1OC2(c3ccc(O)cc3Oc3cc(O)ccc32)c2ccccc21
→ -6.9, .
COc1ccc(/C=C2\Oc3cc(OCc4cccc(C)c4)ccc3C2=O)cc1
→ ., 1.4
O=C(NC1=NCCS1)c1ccc(S(=O)(=O)N2CCc3ccccc3C2)cc1
→ ., -0.5
COc1ccc(NC(=O)COC(=O)c2cc(-c3ccc(C)o3)nc3ccccc23)cc1
→ ., 2.1
COc1ccc(CN2CCN(c3ccccn3)CC2)cc1OCc1ccccc1
→ 0.74, -0.3
COc1cc(NC(=O)CCC2CCCC2)c(C(=O)O)cc1OC
→ ., 0.5
CCOc1ccc(CN(C)C(C)c2nnc(-c3ccc(C)cc3)o2)cc1 (stereo not given)
→ ., 1.0
O=C(O)c1cccc(-n2nnnc2SCc2ccccn2)c1
→ 0.97, 2.4
COc1ccc(O)c(C(=O)c2cnc3c(c2)c(C)nn3CCO)c1
→ ., -0.2
CC(C)(C)c1nnc(SCC(=O)c2ccc(F)c(F)c2)n1N
→ ., 0.1
CC(C)N1C/C(=C/c2ccc(Br)o2)C(=O)/C(=C/c2ccc(Br)o2)C1
→ 0.18, -1.1
Cc1ccccc1Cc1c(C)nc2c(C(=O)NCc3ccco3)cnn2c1C
→ 0.022, 0.4
CN1CCCNC1c1ccc(-c2ccc(Br)cc2)o1 (stereo not given)
→ ., -3.2
COc1cccc(CNCc2cccn2-c2nnc(N3CCCC3)s2)c1
→ ., -5.8
Cc1cccc(Cc2cnc(NC(=O)Cn3cnc4ccccc4c3=O)s2)c1
→ ., -0.4
O=C(OCC(=O)N1N=C(c2ccc(Cl)cc2)CC1c1ccco1)c1cc(S(=O)(=O)N2CCOCC2)ccc1Cl (stereo not given)
→ ., -0.6
COc1cc(C(=O)Nc2cc3c(cc2N2CCCCC2)n(C)c(=O)n3C)cc(OC)c1OC
→ 0.14, 1.7
CC(OC(=O)CCc1ccc(S(=O)(=O)N2CCOCC2)cc1)C(=O)Nc1ccc(Cl)cn1 (stereo not given)
→ ., 0.7
N/C(=N\S(=O)(=O)c1cc(C(F)(F)F)cc(C(F)(F)F)c1)N1CCSCC1
→ ., 3.0
S=C(NCC(c1cccnc1)N1CCOCC1)NC1CCCCC1 (stereo not given)
→ -1.1, 1.4
Cc1nc2cc3c(cc2[nH]1)OCCO3
→ ., -0.4
c1coc(CNC2CCCC2)c1
→ 0.32, 2.8
O=C1NC(=S)N(c2ccccc2)C(=O)/C1=C\c1ccoc1
→ 5.1, -15
CCOC(=O)c1c(C)[nH]c(C)c1C(=O)Cn1nnc2ccccc2c1=O
→ ., -0.2
CS(=O)(=O)c1ccc2nc(NC(=O)c3ccccc3)sc2c1
→ 1.2, -0.7
COc1ccc(C2C(C#N)=C(N)Oc3c2ccc2cccnc32)cc1 (stereo not given)
→ 1.9, -13
O=C(Cn1cnc2ccccc2c1=O)OCC(=O)c1ccc2c(c1)OCO2
→ ., -0.3
O=C1CCCC(O)=C1C=Nc1ccc(Br)cc1
→ 0.91, -1.2
CN(C)c1cccc(C(=O)NCC(c2cccs2)N(C)C)c1 (stereo not given)
→ ., -0.3
COc1ccc(C2=CC(=O)N(c3ccccc3)C(c3ccccc3)O2)cc1 (stereo not given)
→ ., 2.8
COc1ccc2occ(C(O)c3ccccc3)c2c1 (stereo not given)
→ 0.68, -3.9
Cc1[nH]c2ccccc2c1C(=O)C(C)Sc1nnc(-c2ccccc2)o1 (stereo not given)
→ ., -2.8
Cc1ccc2nc(-c3ccccc3)cn2c1
→ ., -1.7

Next part
Results follow in this order: KSHV LANA nucl, BasE inh
CCOc1ncccc1C(=O)Nc1ccnn1C(=O)c1cccnc1OCC
→ ., 1.4
CCOC(=O)c1cc2c(ccn2C)n1CC(=O)N1CCC(Cc2ccccc2)CC1
→ -0.24, 1.9
CC(C)(C)OC(=O)NC1CCN(C(=O)Nc2ccccc2)CC1
→ -0.91, -0.3
CC(C)N1CCC(=O)N(c2ccc3c(c2)CCO3)C1=O
→ -0.85, 4.4
Cc1cc(N2CCC(C(=O)NCCCN3CCCC3)CC2)n2nc(C)c(-c3ccc(Cl)cc3)c2n1
→ -0.43, 1.1
NC(=O)c1nnc2c3c(-c4ccccc4)c(-c4ccccc4)nnc3nn2c1N
→ -11, 9.6
COc1ccc(CN2C(=O)C3CC=CCC3C2=O)cc1F (stereo not given)
→ ., -2.4
Cc1cc(C)nc(N(C#N)CC(=O)N2c3ccccc3Sc3ccc(Cl)cc32)n1
→ -1.4, -0.2
Cc1nn(-c2ccccc2)c2c1C(=O)CC(c1ccco1)C2 (stereo not given)
→ 0.66, .
CCC(CC)NC(=O)CSc1nnc(Cc2ccccc2)o1
→ ., 1.8
CN(C(=O)C1=CC(c2ccc(F)cc2)=NS(=O)(=O)N1C)C1CCCCC1
→ -0.78, 2.0
COc1ccc(-n2c(N)c(-c3nc4ccccc4s3)c3nc(C#N)c(C#N)nc32)cc1
→ ., -2.2
Cc1c(C#N)c(N=CN(C)C)c(C(=O)c2ccccc2)n1-c1ccccc1
→ ., 0.4
CC1(C)NC(=O)N(CCC#N)C1=O
→ ., 0.4
COc1ccc(NC(=O)c2cnc3ccccn3c2=O)cc1
→ 0.31, 2.9
CCN1CCN(CC(=O)NCc2ccc(Cl)cc2)CC1
→ 0.31, -2.5
CC(=O)NCc1ccc(C(=O)CSc2nnc3n2CCCCC3)s1
→ ., 2.1
N#Cc1ccccc1CSc1nc2ccccc2c(=O)n1CC1CCC(C(=O)NCc2ccco2)CC1 (stereo not given)
→ -0.033, -0.6
COc1cc(/C=N/N2CCOCC2)ccc1OC(=O)c1ccco1
→ ., 1.7
CCc1ccc(/C=C2\NC(=S)N(C3CCCCC3)C2=O)cc1
→ ., 2.4
O=C(Nc1ccc(C(=O)N2CCOCC2)cc1)Nc1ccc(Cl)cc1Cl
→ -0.36, 0.9
CC(C)(CO)NC(=O)COc1ccc(Cl)cc1
→ -0.15, 5.9
CC(C)c1ccc(C2NC(=O)NC2=O)cc1 (stereo not given)
→ ., 0.0
COC(CNS(=O)(=O)c1ccc(S(=O)(=O)NCc2ccccc2)cc1)OC
→ 1.1, 0.0
C=Cn1c(=N)n(C)c2ccccc21
→ 1.5, 0.7
FC(F)Sc1nnc(-c2ccccc2)c2ccccc12
→ ., 1.9
CCOc1ccccc1C(=O)N1CCOCC1
→ -0.32, -0.1
O=C1CN(c2ccccc2)C(=Nc2ccccc2)S1
→ -0.055, 5.3
O=C(NCc1cccnc1)C1CCN(c2nnc(-n3cccc3)s2)CC1
→ -0.19, 1.0
CCc1cccc2c(C#N)cn(CCOc3ccccc3OC)c12
→ -0.62, 2.3
CC1CCN(C(=O)CSc2nnc(Cc3ccccc3)o2)c2ccccc2S1 (stereo not given)
→ ., -1.9
O=c1ccc(-c2ccc(S(=O)(=O)NCCCN3CCCCCC3)s2)n[nH]1
→ 2.2, -5.9
O=C(O)c1c2ccccc2[nH]c2c1oc1cc(=O)ccc12
→ -0.76, 3.0
CCOC(=O)c1sc(SC)c2c1CC/C(=C\N(C)C)C2=O
→ 0.68, .
COc1ccc(NC(=O)/C(C#N)=C/C=C/c2ccco2)cc1
→ -0.046, -1.6
COc1ccc(C(=O)OCC(=O)N(C)C)cc1
→ ., 1.9
O=C1NC(=O)c2cc(NC(=O)C3COc4ccccc4O3)ccc21 (stereo not given)
→ 0.29, -1.4
COC(=O)CC1=NN(c2ccccc2)C(=O)/C1=C/N(C)C
→ -0.82, -0.4
CC(C)c1ccc(OC(=O)C2COc3ccccc3O2)cc1 (stereo not given)
→ 0.76, 1.1
CC(C)Cn1cnc2sc3c(c2c1=N)CCCC3
→ 1.5, -6.1
O=C(c1cc2ccc3cccnc3c2[nH]1)N1CCc2ccccc21
→ ., 0.9
CC1=C(C(=O)OC(C)C(C)(C)C)C(c2ccc(O)cc2)NC(=O)N1 (stereo not given)
→ -1.6, 2.4
CN(CCCc1[nH]nc(N)c1C#N)c1nc(-c2cccs2)nc2ccccc12
→ ., -18
CC(C)Cn1c(SC/C(O)=C(\C#N)C(=O)NCc2ccccc2)nc2ccccc21
→ ., 3.4
O=C(NCCCn1ccnc1)c1cc(C(=O)C2CC2)c[nH]1
→ 0.43, .
CC1=C(C#N)C(C(F)(F)F)(C(F)(F)F)N=C(c2cccnc2)N1
→ -0.036, -2.4
CN1CCOCCOCCN(C)C1=O
→ -1.2, 0.9
Cc1cc(NS(=O)(=O)c2ccc(N3Cc4ccccc4C3=NC(=O)c3cccc(S(=O)(=O)N(C)C)c3)cc2)no1
→ ., 3.6
c1ccc2[nH]c(Cc3nc4ccccc4s3)nc2c1
→ ., -1.1
C=CCNC(=O)CCc1cc(OC)c(OC)c(OC)c1
→ ., 1.7

The results go on.
Results follow in this order: KSHV LANA nucl, BasE inh
Cc1cc(C(=O)OCC(=O)OC2CC(C)CCC2C(C)C)c(C)o1 (stereo not given)
→ ., 1.2
COc1ccc(NC(=O)C(c2ccc(C)cc2)N(Cc2ccco2)C(=O)c2cnccn2)cc1 (stereo not given)
→ 0.51, 1.1
O=C(CP(=O)(CO)CO)c1ccc(Cl)cc1
→ ., 1.4
Cc1ccc2[nH]c(=O)c(CN(Cc3cccnc3)S(=O)(=O)c3ccccc3)cc2c1
→ 0.74, -2.6
S=C(NCc1ccco1)N/N=C1\CSCc2ccccc21
→ 0.2, -0.1
Cc1ncc(CO)c(/C=N/NC(=O)c2ccc(O)cc2)c1O
→ -1.6, 10
O=C(Cn1c(NCc2ccccc2)nc2ccccc21)N1CCCC1
→ ., 1.8
Cc1ccccc1OC(C)C(=O)O/N=C(\N)c1cccnc1 (stereo not given)
→ -1.4, 1.9
COC(=O)[C@H]1[C@H]2C[C@@H]3c4[nH]c5cc(OC)ccc5c4CCN3C[C@H]2C[C@@H](OC(=O)/C=C/c2cc(OC)c(OC)c(OC)c2)[C@@H]1OC
→ -0.1, -1.2

From PubChem

These rows are one share of the data. The share of hits here may be higher or lower than overall.
